Screening data as filed in PubChem.
Sa growth 42C: inhibitors of Staphylococcus aureus growth at 42 °C. S. aureus RN4220 growth, OD600, 20 h; hits give low values. relative growth, % (test concentration not listed). 170,000 compounds, 0.53% hits;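 active means growth at 42 °C up to 50% and 20 or more points under that at 30 °C, or under 10% at both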;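 further: 300 nL library stock went into each well; scaled to the means of positive and negative controls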
HCMV UL50-53 inh: inhibitors of HCMV UL50-UL53 nuclear egress complex interaction; HTRF UL50-UL53 interaction, normalized percent inhibition; inhibition, % (test concentration not listed); 190,000 compounds, 0.15% hits; AID 1918969;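 active means both replicates at 50% or more, plus weaker picks with an unusually low signal ratio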;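 further: stock transfer was 100 nL into about 20 µL; 0% = negative control wells and 100% = wells with untagged competitor protein; inactives centre near -12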
GIV-Gai inh: blocks GIV peptide binding to rat Galpha-i3. Galpha-i3/FITC-GIV peptide fluorescence polarization, 90 min; hits give low values; scaled: aluminum fluoride 0%, vehicle 100%. percent of control (FP), % (no concentration beside the values). AID 1224905. P08753. 210,000 compounds, 0.42% hits;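 active means replicate mean at 85% of control or lower, very high polarization wells dropped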;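 further: wells of about 15 µL received 100 nL stock; the first replicate is given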
Target sequence (P08753 whole entry, looked up): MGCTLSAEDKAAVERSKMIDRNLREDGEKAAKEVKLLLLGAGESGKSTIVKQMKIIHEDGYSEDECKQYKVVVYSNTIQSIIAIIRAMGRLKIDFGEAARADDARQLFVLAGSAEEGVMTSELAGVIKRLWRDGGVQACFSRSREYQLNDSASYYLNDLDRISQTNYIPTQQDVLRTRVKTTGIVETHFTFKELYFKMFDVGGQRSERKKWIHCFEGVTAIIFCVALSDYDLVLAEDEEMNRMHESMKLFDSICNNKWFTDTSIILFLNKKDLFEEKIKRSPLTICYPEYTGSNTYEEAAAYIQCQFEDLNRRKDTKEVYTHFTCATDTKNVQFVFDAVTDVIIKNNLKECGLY
Sa growth 42C second temp: also measured in Sa growth 42C; calls as there; relative growth, %; measured here: growth at 30 °C;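 optical density after 20 h as mean of two plates; 100% = untreated growth and lower means inhibition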
The depositor's hits bear a star; nt = not tested or not shown.

SMILES	Sa growth 42C	Sa growth 42C second temp	HCMV UL50-53 inh	GIV-Gai inh
O=S(=O)(/N=C(\Nc1cccc2ccccc12)c1ccccc1)c1ccccc1	111	110	2	nt
CCc1cccc(NC(=O)C(CC)n2nc(C)c3sc4ccccc4c3c2=O)c1 (stereo unspecified)	129	97	-18	105
C=Cn1ccnc1P(=NN=Nc1ccc(S(N)(=O)=O)cc1)(N(CC)CC)N(CC)CC	98	89	-10	nt
Cc1ccc2c(CC(=O)NCc3ccccc3)coc2c1	122	106	16	nt
N#CC(=C1CCN(Cc2ccccc2)CC1)c1ccccc1	127	89	-8	103
O=C(NC1CCCCC1)c1ccc(N2CCCC2=O)cc1	96	91	-10	111
Cc1nc2c(c(NCC(C)C)n1)CCC2	nt	nt	-5	104
O=C(Cc1cccs1)NN1CCOCC1	106	105	2	104
COc1cccc(OC)c1C(=O)NCCc1csc(-c2ccc(Cl)cc2)n1	98	87	nt	109
CCOC(=O)N1CCC(NC(=O)CSCc2nc(-c3ccc(C)cc3)oc2C)CC1	75	84	-24	104
Cc1ccc2cc3c(nc2c1)N(Cc1ccco1)CC3	129	75	nt	102
Cc1ccc(N(Cc2nc3nc(C)cc(=O)n3[nH]2)C(=O)c2ccccc2)cc1	nt	nt	-30	109
Cc1nc2sc(C(=O)NCc3ccc(Cl)cc3)c(NC(=O)c3ccccc3)c2c(C)c1C	106	89	-62	104
COc1ccc(N(CC(=O)NCc2ccccc2Cl)S(=O)(=O)c2c(C)[nH]c(=O)[nH]c2=O)cc1	107	90	-14	109
CNC(=O)C1CCC(Cn2c(=O)c3sccc3n(CC(N)=O)c2=O)CC1 (stereo unspecified)	nt	nt	-13	106
Cc1ccc(S(=O)(=O)N2CCN(C(=O)c3cc(-c4ccc(Br)cc4)n[nH]3)CC2)c(C)c1	100	86	nt	98
CCc1ccc(S(=O)(=O)NCCc2cn3ccccc3n2)s1	96	90	nt	102
COc1ccc(NC(=O)C2=CC(c3ccc4c(c3)OCO4)=NS(=O)(=O)N2C)cc1OC	75	90	-32	109
COc1ccc(-c2nnc3c4ccccc4c(C)nn23)cc1S(=O)(=O)N1CCN(C)CC1	95	84	-6	101
CCOc1cc(/C=N/NC(N)=S)cc(I)c1O	99	85	-22	105
CCOc1ccc(-n2c(SCC(=O)NCc3ccco3)nc3n[nH]c(C)c3c2=N)cc1	102	88	nt	96
CS(=O)(=O)c1ccc2nc(NC(=O)c3ccc(S(=O)(=O)N4CCc5ccccc54)cc3)sc2c1	nt	nt	-5	116
COc1ccc(-c2ccc(=O)n(CC(=O)Nc3ccc(N(C)C)cc3)n2)cc1	106	76	nt	104
Cc1ccsc1CCNS(=O)(=O)c1cc(-c2ccno2)sc1C	nt	nt	-12	110
O=C(CN1C(=O)c2ccccc2S1(=O)=O)c1ccc(Cl)cc1	86	94	-17	nt

Remaining list, next part
SMILES	Sa growth 42C	Sa growth 42C second temp	HCMV UL50-53 inh	GIV-Gai inh
CCCN(Cc1ccc(OC)c(C)c1OC)CC1CC1	104	104	-17	106
CCN1c2cc(C)ccc2-n2cccc2C12CCN(S(=O)(=O)c1ccc3c(c1)CCCC3)CC2	nt	nt	-30	100
Cn1c(=O)c(=O)n(C)c2cc(S(=O)(=O)C3CCCCC3)c(NC(=O)c3cccc(F)c3)cc21	nt	nt	-16	102
O=C1CCC(=O)N1Nc1nc2ccccc2c2nc(-c3ccccc3)nn12	109	87	nt	105
CCOC(=O)c1sc2ncn(CC(=O)N3CCCCC3C)c(=O)c2c1C (stereo unspecified)	nt	nt	-24	99
CCOc1ccc(-n2c(Cc3ccccc3)nnc2SCc2nc(-c3ccccc3C)no2)cc1	86	88	-12	102
CCCCCC(=O)N1c2ccccc2NC2=C(C(=O)CC(C)(C)C2)C1c1cccc(OC)c1 (stereo unspecified)	nt	nt	5	97
COc1ccc(CCN2CC(C(=O)NCCc3ccccc3)CC2=O)cc1OC (stereo unspecified)	110	80	nt	98
O=C1NS(=O)(=O)c2ccc(Cl)cc2Sc2ccccc21	96	81	-1	104
Cc1ccc(/C=C/C(=O)N2CCN(C(c3ccccc3)c3ccccc3)CC2)o1	125	86	-19	113
CCN(C(=O)Cn1cc(C(F)(F)F)ccc1=O)C1CCS(=O)(=O)C1 (stereo unspecified)	81	87	-18	nt
COc1ccc(N(CC(C)C)S(=O)(=O)c2nnc(NC(=O)c3cccs3)s2)cc1	97	72	-10	101
COc1ccc(C2CC(=O)C3=C(C2)Nc2ccccc2NC3c2cc(Br)ccc2OC)cc1OC (stereo unspecified)	nt	nt	-14	107
CC(C)(C)C(=O)C(C#N)=C1SCCS1	108	82	-10	98
COc1cc(-c2nc(NCc3ccc(F)cc3)c3ccccc3n2)cc(OC)c1OC	nt	nt	10	112
Cc1ccc2[nH]c(-c3ccccc3)c(CN3CCCC3)c(=O)c2c1	112	78	nt	94
CN(CCc1cn[nH]c1)Cc1nc(-c2ccc(C(F)(F)F)cc2)no1	61	94	12	103
N#CC(C#N)=NNc1cc(-c2ccccc2)[nH]n1	101	77	-71	105
CCNC(=S)N1CCN(c2ccccc2)CC1	116	89	-21	102
O=C(CSc1nnc(-c2ccccc2Br)n1-c1ccccc1)c1ccc(F)cc1	75	60	-13	99
Cc1nnsc1C(=O)Oc1ccccc1N1CCCCC1	98	88	-16	93
Cc1ccc(-n2nc(-c3cccs3)cc2C(=O)NCC2CCCO2)c(C)c1 (stereo unspecified)	84	77	-10	nt
CCCCN(C(=O)Nc1ccc(Cl)cc1)C1CCN(C(C)=O)CC1	117	92	nt	102
O=C(CSc1nc(=O)[nH]c2c1CCCC2)Nc1cc(C(F)(F)F)ccc1Cl	103	96	nt	96
O=C(Nc1ccccn1)C(=NO)C(=O)Nc1ccccn1	82	55	-2	102

(next part)
SMILES	Sa growth 42C	Sa growth 42C second temp	HCMV UL50-53 inh	GIV-Gai inh
CC1CCC(C(C)C)C(OC(=O)CSc2nnc(N)s2)C1 (stereo unspecified)	116	99	0	nt
COc1ccc(C(=O)Oc2c(Cl)cc(C=C3C(=O)NC(=O)NC3=O)cc2OC)cc1	nt	nt	49*	103
CCOC(=O)N1CCN(S(=O)(=O)c2ccc(OC)c(C(=O)N3CCCCC3)c2)CC1	101	92	0	105
O=C(c1ccc(Br)cc1)C(C(=O)N1CCCCC1)n1ccccc1=O (stereo unspecified)	127	89	nt	102
N/C(CSc1nc(-c2ccccc2)c(-c2ccccc2)o1)=N\O	101	88	-17	99
CCCCCCCCc1ccc(-c2ccc(C(=O)Nc3nc4ccccc4n3C)cc2)cc1	nt	nt	-15	98
NC(=O)C1CCN(S(=O)(=O)Cc2c(F)cccc2Cl)CC1	nt	nt	-24	103
O=C(CSc1ncccn1)N(c1ccccc1)C1CCS(=O)(=O)C1 (stereo unspecified)	76	94	-13	nt
CN1CCC2(CC1)Oc1ccccc1C1CC(c3ccccc3)=NN12 (stereo unspecified)	86	93	-12	nt
CCCCc1c(C)[nH]n(-c2nc(C)c(C(=O)NCCC)s2)c1=O	nt	nt	-34	102
CCn1cc(C(=O)N2CCN(c3ccc(OC)cc3)CC2)c(=O)c2cc(S(=O)(=O)N(C)C3CCCCC3)ccc21	92	92	7	101
COc1ccccc1NC(=O)O/N=C(\N)c1ccccc1	86	94	-1	nt
O=C(CSc1ncn[nH]1)Nc1cccc(Br)c1	69	85	-3	nt
Cc1ccccc1OCC(=O)Nc1nnc(SCc2cc(=O)n3cccc(C)c3n2)s1	82	82	nt	99
Cc1cc2c(cc1C)N(CC(=O)NC1CCCCC1)C(=O)C1CCCC1=N2 (stereo unspecified)	nt	nt	-28	106
Cc1nc(NC(=O)C2CC2c2ccc(C(C)(C)C)cc2)sc1C(=O)N(C)C (stereo unspecified)	101	102	1	112
CC(=O)N1c2c(cc(Br)cc2S(=O)(=O)N2CCN(c3cccc(Cl)c3)CC2)CC1C (stereo unspecified)	99	93	-8	100
CN(C(=O)CSc1nnc(NC(=O)Nc2ccccc2)s1)c1ccccc1	107	97	nt	95
CCOc1ccc(N2C(=O)c3cc4ccsc4n3CC2(C)C(=O)NC2CCCC2)cc1 (stereo unspecified)	nt	nt	-6	105
COc1ccc(NC(=O)c2ccccc2-c2nc(-c3ccccc3)no2)cc1	nt	nt	-1	94
Cc1ccc(CSc2n[nH]c(=O)n2-c2cccc(Cl)c2)cc1	112	100	-34	103
CN1C(=O)N(C)C2(CC1(C)C)CC(C)(C)N(C)C(=O)N2C	88	112	3	108
CCOC(=O)c1c(C)nc2c1cc(O)c1c2c(-c2ccccc2)[nH]n1-c1ccccc1	nt	nt	-14	100
COc1cc(Nc2nc(C)cc(=O)[nH]2)c(OC)cc1Cl	nt	nt	-6	102
FC(F)(F)c1ccc(Oc2ccc(Br)cc2)nc1	103	97	-4	104

Ordered by count of non-hydrogen atoms (low to high): part of the list above.
SMILES	Sa growth 42C	Sa growth 42C second temp	HCMV UL50-53 inh	GIV-Gai inh
O=C(CSc1ncn[nH]1)Nc1cccc(Br)c1	69	85	-3	nt
FC(F)(F)c1ccc(Oc2ccc(Br)cc2)nc1	103	97	-4	104
COc1cc(Nc2nc(C)cc(=O)[nH]2)c(OC)cc1Cl	nt	nt	-6	102
CN1C(=O)N(C)C2(CC1(C)C)CC(C)(C)N(C)C(=O)N2C	88	112	3	108
Cc1ccc(CSc2n[nH]c(=O)n2-c2cccc(Cl)c2)cc1	112	100	-34	103
N/C(CSc1nc(-c2ccccc2)c(-c2ccccc2)o1)=N\O	101	88	-17	99
O=C(CSc1ncccn1)N(c1ccccc1)C1CCS(=O)(=O)C1 (stereo unspecified)	76	94	-13	nt
CN1CCC2(CC1)Oc1ccccc1C1CC(c3ccccc3)=NN12 (stereo unspecified)	86	93	-12	nt
Cc1cc2c(cc1C)N(CC(=O)NC1CCCCC1)C(=O)C1CCCC1=N2 (stereo unspecified)	nt	nt	-28	106
COc1ccc(NC(=O)c2ccccc2-c2nc(-c3ccccc3)no2)cc1	nt	nt	-1	94
CC(=O)N1c2c(cc(Br)cc2S(=O)(=O)N2CCN(c3cccc(Cl)c3)CC2)CC1C (stereo unspecified)	99	93	-8	100
CCOC(=O)c1c(C)nc2c1cc(O)c1c2c(-c2ccccc2)[nH]n1-c1ccccc1	nt	nt	-14	100
CCCCCCCCc1ccc(-c2ccc(C(=O)Nc3nc4ccccc4n3C)cc2)cc1	nt	nt	-15	98
CCn1cc(C(=O)N2CCN(c3ccc(OC)cc3)CC2)c(=O)c2cc(S(=O)(=O)N(C)C3CCCCC3)ccc21	92	92	7	101

(listing goes on)
SMILES	Sa growth 42C	Sa growth 42C second temp	HCMV UL50-53 inh	GIV-Gai inh
COc1ccc(N2CCN(C(=O)/C=C/c3ccccc3)CC2)cc1	85	85	-22	nt
Cc1cc(N2CCCC2)n2nc(-c3ccccc3)c(C)c2n1	nt	nt	-26	105
CCOCC(O)CSc1nc(C)cc(C)n1 (stereo unspecified)	111	77	-5	nt
Cc1nc(-c2ccccc2)ccc1C(=O)O	88	89	-32	nt
CCN1c2ccccc2-c2nc(SCC(=O)Nc3ccc(C)c(Cl)c3)ncc2S1(=O)=O	72	78	nt	102
Cc1ccc(C)c(NC(=O)CSc2nc(-c3ccccc3)c(C#N)c(=O)[nH]2)c1	104	103	2	108
Cc1ccnc(Cl)c1N	85	78	-13	107
COC(=O)Cn1c(=O)n(-c2ccccc2)c(=O)n1CC(=O)OC	97	88	-31	101
CCn1cc2nc(SCc3cc(C)ccc3C)n(Cc3ccc(C)cc3)c(=O)c2n1	83	91	nt	101
Cc1ccc2nc3sc(C(N)=O)c(N)c3cc2c1	89	88	-46	110
Cc1ccc(CN2COc3ccc4c(-c5ccccc5)cc(=O)oc4c3C2)cc1	105	86	-94	97
O=C(c1cnc2ccc(F)cc2c1Nc1ccc(Br)cc1F)N1CCCCC1	nt	nt	-16	98
N=c1n(CCN2CCCCC2)c2ccccc2n1CC(O)COc1ccccc1 (stereo unspecified)	102	102	19	104
Cc1ccc2c(N)c(C(=O)c3ccc(Cl)cc3)sc2n1	80	92	-4	nt
COCCNC(=O)c1cnc(N(C)C)nc1C	nt	nt	-27	99
Cc1ccc(-c2cc3c(N4CCC(C(=O)NC5CCCC5)CC4)nccn3n2)cc1C	nt	nt	-10	113
Cc1cc2occ(CC(=O)OCc3c(F)c(F)c(F)c(F)c3F)c2cc1C	94	102	7	nt
CC(C)c1ncc(S(=O)(=O)c2ccc(C(F)(F)F)cn2)c(N)n1	100	90	-5	99
COc1ccc(C2C(C(=O)Nc3nc4ccccc4s3)=C(C)NC3=C2C(=O)CCC3)c(OC)c1 (stereo unspecified)	nt	nt	-23	103
O=C(Nc1ccc(Br)cc1)c1ccc(Nc2ccnc(-c3cccc(F)c3)n2)cc1	nt	nt	9	106
Cc1oc(-c2ccccc2)nc1CNS(=O)(=O)c1ccc(Cl)cc1	92	91	nt	107
Cc1cc(C)n(CC(=O)Nc2nc(-c3ccccc3)cs2)n1	125	93	-23	97
O=C(Nc1ccccc1)N1CCN(c2nc3cccnc3s2)CC1	nt	nt	2	105
Cc1ccc2[nH]c3c(c2c1)CCCC3=NCCO	115	79	-45	101

Looked up by compound from above (3):
SMILES	Sa growth 42C	Sa growth 42C second temp	HCMV UL50-53 inh	GIV-Gai inh
O=C(Nc1ccccc1)N1CCN(c2nc3cccnc3s2)CC1	nt	nt	2	105
Cc1ccnc(Cl)c1N	85	78	-13	107
COC(=O)Cn1c(=O)n(-c2ccccc2)c(=O)n1CC(=O)OC	97	88	-31	101
